Insulin prom inh: inhibitors of insulin promoter-driven GFP, primary screen, imaging, TRM-6 cells (human fetal islet line), eGFP reporter, cell count | reporter expression induced with tamoxifen | inhibition, % at 2 µM | actives 0.9% (n = 130,000);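 active means inhibition above the mean plus 3 SD, with well images judged a real hit on visual review, cut at about 60% in these data, passing the limit was not always enough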
RGS16-Gao: modulators of RGS16 binding to Galphao, primary screen, biochemical, human proteins, multiplexed bead flow cytometry. AID 1441, 2008. Regulator of G-protein signaling 16 (Homo sapiens) + Guanine nucleotide-binding protein …. bead-based flow cytometry RGS16-Galphao binding, fluorescence; actives lie on both sides. actives 0.38% (n = 220,000). binding response (% of control), % at 10 µM;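 active means below 25% or above 175%, edge rows of some plates excepted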;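 further: Galphao activated by GDP with aluminum fluoride before binding; 100% = wells without compound and 0% = beads without RGS; some results beyond the cut were filed as inactive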
Target sequence (O15492 whole entry, looked up): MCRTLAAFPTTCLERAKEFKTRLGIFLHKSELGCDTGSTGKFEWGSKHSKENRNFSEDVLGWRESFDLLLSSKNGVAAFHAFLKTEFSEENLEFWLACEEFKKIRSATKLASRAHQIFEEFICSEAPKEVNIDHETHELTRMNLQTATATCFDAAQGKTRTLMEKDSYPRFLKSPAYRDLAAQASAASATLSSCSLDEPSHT
Target sequence (P09471 whole entry, looked up): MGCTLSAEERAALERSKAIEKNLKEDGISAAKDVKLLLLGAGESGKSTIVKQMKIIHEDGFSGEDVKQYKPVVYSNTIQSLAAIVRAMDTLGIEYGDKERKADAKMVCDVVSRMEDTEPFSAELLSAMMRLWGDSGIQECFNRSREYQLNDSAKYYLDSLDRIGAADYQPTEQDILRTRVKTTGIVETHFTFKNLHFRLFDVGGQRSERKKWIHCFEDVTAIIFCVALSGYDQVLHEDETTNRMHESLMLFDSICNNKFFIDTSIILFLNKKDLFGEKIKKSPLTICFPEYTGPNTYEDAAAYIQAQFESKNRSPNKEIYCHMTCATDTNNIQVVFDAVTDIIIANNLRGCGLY
GALR2 agonist: GALR2 receptor agonists, primary screen, cell-based; activation, %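 (tested at 5 µM)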; actives 0.48% (n = 140,000); GALR2-expressing cells, agonist activation read-out; Galanin receptor type 2 (Homo sapiens), O43603;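 active means above mean plus 3 SD of all compounds, about 5% in these data, not always enough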;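 further: 0% = vehicle buffer wells and 100% = reference agonist at full effect; tested in CHO reporter cells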
Target sequence (O43603 whole entry, looked up): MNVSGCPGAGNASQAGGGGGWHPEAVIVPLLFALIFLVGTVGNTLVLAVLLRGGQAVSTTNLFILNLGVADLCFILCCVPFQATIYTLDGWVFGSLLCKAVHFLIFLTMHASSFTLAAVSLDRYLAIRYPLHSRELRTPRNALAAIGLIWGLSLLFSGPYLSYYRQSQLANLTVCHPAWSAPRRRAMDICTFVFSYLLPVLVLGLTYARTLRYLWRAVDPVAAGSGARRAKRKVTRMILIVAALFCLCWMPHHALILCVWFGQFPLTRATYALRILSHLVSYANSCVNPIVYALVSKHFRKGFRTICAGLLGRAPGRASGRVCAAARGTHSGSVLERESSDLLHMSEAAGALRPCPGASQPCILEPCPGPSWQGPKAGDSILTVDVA
HSV augment: enhancers of HSV replication in host cells, fold increase, host cell viability; HSV replication augmentation in cells; maximum fold increase; actives 0.005% (n = 220,000); AID 1956, 2009;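 active means peak rise of 1.5-fold or more in the series; tested in PC3 cells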;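 further: first round at 10 µM; read as green reporter fluorescence; hits show the peak of a series up to 25 µM; 1 = signal of infected wells without compound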
PKD1 kinase inh: inhibitors of human PKD1 kinase, biochemical, fluorescence polarization; inhibition, %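 (about 10 µM by stock and volumes)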; AID 797, 2007; actives 0.056% (n = 200,000); PKD1 kinase fluorescence polarization assay; Serine/threonine-protein kinase D1 (Homo sapiens), Q15139;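 active means inhibition of 50% or more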;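 further: controls were vehicle for no effect and a reference inhibitor for full effect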
Insulin prom inh cell count: recorded beside Insulin prom inh, whose call it bears; normalized cell count, %; measured here: cell count, toxicity; reference of the scale not given here;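 cells exposed to compound for 48 h; stained nuclei by imaging scaled within each plate; lower means fewer cells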
HSV augment primary fold: also measured in HSV augment; calls as there; fold increase; compound at 10 µM; measured here: primary screen fold increase 10 uM; tested in PC3 cells;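 GFP signal in the first replicate; 1 = infected wells without compound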
An asterisk follows results filed as active; i = inactive; x = not tested or not shown.

Molecule	Insulin prom inh	Insulin prom inh cell count	RGS16-Gao	GALR2 agonist	HSV augment	HSV augment primary fold	PKD1 kinase inh
N=C1c2ccccc2CN1NC(=O)c1cccc(S(=O)(=O)N2CCCCC2)c1	x	x	75	-2.4	i	1.1	-13
Cc1cc(C)c(N2C(=NC(=O)CCCC(=O)O)SC3CS(=O)(=O)CC32)c(C)c1 (stereo not given)	-8	105	115	-1.1	i	1	-2
C/C(=N\O)c1ncc(C(F)(F)F)cc1Cl	x	x	94	x	i	1	2
O=C(O)CSc1nc2c(c(=O)[nH]1)CCCC2	x	x	79	-1.3	i	0.96	-8
O=P(O)(O)c1cc(-c2ccccc2)oc1-c1ccccc1	x	x	95	x	i	1.2	x
O=C(Cn1cc(C(=O)C(F)(F)F)c2cc(Br)ccc21)N1CCOCC1	x	x	91	x	i	1	-3
Cc1cc(N(C)C)ccc1N=Nc1ccc2ncccc2c1	x	x	102	x	i	0.98	x
COc1cc(NC(=S)NCCCN2CCOCC2)c(OC)cc1Cl	-33	129	113	x	i	0.92	-8
O=S(NCc1ccccc1)C12CC3CC(CC(C3)C1)C2 (stereo not given)	-9	117	104	-1.0	i	0.92	-4
Cc1nc2ccccc2c2c1C(=O)N(c1cccc(C(=O)O)c1)C2=O	x	x	99	x	i	1	-5
COc1ccc(C2CC(c3ccccc3Cl)Nc3ncnn32)cc1OC (stereo not given)	x	x	95	0.3	i	0.71	10
CCN(CC)c1ccc(C(=O)OCC(=O)N(C)Cc2ccccc2)cc1	x	x	105	x	i	1	0
O=C(CN1C(=O)NC2(CCCCCC2)C1=O)NC1CC1	i	79	101	x	i	0.95	-5
CCc1nc2ccccc2c(C(=O)OCC(=O)NCc2ccc3c(c2)OCO3)c1C	-66	68	100	-0.7	i	0.78	6
COc1ccc(Nc2c3c(nc4ccccc24)CCCC3)cc1OC	-6	136	101	x	i	0.89	-6
C#Cc1ccc(C(=O)Nc2cc(C(N)=O)ccc2N2CCOCC2)cc1	36	127	87	-5.2	i	1.2	2
C/C(=N\NC(=O)C(=O)Nc1c(C)n(C)n(-c2ccccc2)c1=O)c1ccncc1	x	x	104	x	i	0.96	x
COc1ccc(N(CN2C(=O)c3ccccc3C2=O)C(=O)C(C)C)cc1	x	x	97	-0.6	i	0.81	-1
COc1ccc(C2/C(=C(/O)c3ccccc3)C(=O)C(=O)N2c2ccccn2)cc1OC (stereo not given)	x	x	106	x	i	1.1	7
O=C(CSc1nnnn1-c1ccccc1)Nc1ncc(Cc2cccc(Cl)c2Cl)s1	35	88	103	0.7	i	1	-19
O=C1C(=O)N(CC2CCCO2)C(c2ccccc2[N+](=O)[O-])/C1=C(/O)c1ccccc1 (stereo not given)	-50	130	104	x	i	1	5
Cc1cc(C)nc(SC2CCCCC2NS(=O)(=O)c2ccc(Cl)cc2)n1 (stereo not given)	x	x	135	0.0	i	1	1
Cc1cc(C)cc(OCc2ccc(C(=O)O)o2)c1	10	152	101	-3.1	i	1.1	4
O=C(NC1CCCCCCC1)NC1CCCCC1	5	122	99	-2.3	i	0.84	-9
CCN(CC)c1nc2ccccc2n2cnnc12	-64	90	104	1.0	i	0.89	-42
Cc1ccc(Nc2nc(CSc3nnnn3-c3ccccc3)cc(=O)[nH]2)cc1	-100	87	120	-0.9	x	x	-3
CCOC(=O)C1C(=O)NC(c2ccccc2)=NC1c1ccc(F)cc1 (stereo not given)	27	99	102	-2.2	i	0.95	-5
Cc1ccc(C(=O)/C=C/c2cn(CN3CCN(C)CC3)c3ccccc23)cc1	14	122	106	5.8	i	0.84	-6
COC(=O)Cn1c(CCS(=O)(=O)c2ccc(Cl)cc2)nc2ccccc21	-16	196	105	-1.3	i	0.82	-5
CCNC(=S)N(CCc1c(C)[nH]c2ccc(Cl)cc12)Cc1ccco1	-47	104	104	x	i	1.1	-6

Further entries follow:
Molecule	Insulin prom inh	Insulin prom inh cell count	RGS16-Gao	GALR2 agonist	HSV augment	HSV augment primary fold	PKD1 kinase inh
CCOC(=O)c1nnn(-c2ccc([N+](=O)[O-])cc2[N+](=O)[O-])c1C	-23	99	99	x	i	0.61	6
CSCCC(NS(=O)(=O)c1ccc(Cl)cc1)C(=O)OCC(=O)NC1CCCCC1 (stereo not given)	-10	99	98	-1.4	i	0.97	3
COc1cc(C(=O)N2CCN(C/C=C/c3ccccc3)CC2)cc(OC)c1OC	-5	100	110	-1.1	i	1.1	0
COc1ccccc1N1CCN(C(=O)C(C)N(c2ccccc2)S(C)(=O)=O)CC1 (stereo not given)	-36	97	95	-0.3	i	0.71	-2
CCNC(=O)COc1cccc2ccccc12	-3	113	102	-1.0	i	0.72	2
Cc1ccc(N2CC(C(=O)OCC(=O)Nc3ccccc3F)CC2=O)cc1 (stereo not given)	x	x	100	x	i	0.97	-4
S=C(NCC1CCCO1)N1CCN(c2ccccc2)CC1 (stereo not given)	x	x	101	x	i	0.91	5
c1ccc(-n2ncc3c(NC4CCCCCC4)ncnc32)cc1	x	x	100	x	i	0.72	x
Cc1ccc(SCCC(=O)Nc2c(C)n(C)n(-c3ccccc3)c2=O)cc1	21	66	102	-2.2	i	0.92	-6
O=C(O)CCCCCNC(=O)C(=O)C1C(=O)Nc2ccccc21 (stereo not given)	x	x	111	x	i	0.97	x
CCOC(=O)c1cnc(-n2nc(C)cc2C)nc1Nc1ccc(C)cc1	x	x	33	-2.5	x	x	-8
CC1CCCCN1C(=S)Nc1ccc(OC(F)F)cc1 (stereo not given)	25	58	125	-0.8	i	1	-8
CN1CCN(NC(=S)Nc2ccc(OC(F)F)cc2)CC1	x	x	103	x	i	0.95	-1
CCCCOC(=O)Cn1c(=N)n(CCN2CCOCC2)c2ccccc21	41	66	x	-0.7	i	0.6	-6
Nn1c(SCc2nc3ccccc3[nH]2)nnc1C1CCCCC1	18	99	99	-0.5	i	0.79	-7
Cc1cc(C)nc(NS(=O)(=O)c2ccc(NC(=O)CCCN3C(=O)c4ccccc4C3=O)cc2)n1	-17	60	113	-1.1	i	0.9	3
Cc1cc(C)cc(N(C(C)C(=O)N2CCCCC2)S(C)(=O)=O)c1 (stereo not given)	3	123	76	-1.2	i	0.88	-13
CC(C)(C)NC(=S)NC1CC1	x	x	100	x	i	1	x
CC(C)(C)NC(=O)CN(C(=O)c1ccc(Cl)nc1)c1cccc2ccccc12	-108	93	106	x	i	1	4
O=C(Nc1ccc2c(c1)OCO2)C1CC(c2c(F)cccc2Cl)=NO1 (stereo not given)	22	78	111	-1.2	i	0.76	0
CC(=O)c1sc(Nc2nc3cc4c(cc3s2)OCO4)nc1C	42	62	95	x	i	1.1	7
CCCCN(CC)C(=O)CN1C(=O)c2ccccc2C1=O	7	136	102	-1.8	i	0.85	-7
CCCSc1nc2c(cnn2-c2ccccc2)c(=O)[nH]1	0	125	118	-0.7	i	0.89	-1
COc1cc(/C=N/Nc2cccc(C)c2)ccc1OC(=O)c1ccco1	-31	114	98	-1.6	i	0.98	-1
O=[N+]([O-])c1cc(-c2nc(-c3ccncc3)no2)ccc1Cl	-63	90	101	0.8	i	0.97	14
COc1ccc(OC)c(-c2csc(NC(=O)C3COc4ccccc4O3)n2)c1 (stereo not given)	x	x	99	x	i	0.94	-1
CN(Cc1nc2ccccc2n1C)S(=O)(=O)c1ccc(Cl)cc1	26	122	100	-0.2	i	0.91	-6
CCCCNC(=O)CC1N=C2c3ccccc3N=C(SCC(=O)Nc3ccccc3C)N2C1=O (stereo not given)	-41	59	102	-0.1	i	0.86	0
Cc1ccnc(NS(=O)(=O)c2ccc(N3C(=O)c4ccccc4C3=O)cc2)n1	x	x	101	-1.2	x	x	3
COc1cc(-c2nnc3n2N=C(c2ccccc2)CS3)cc(OC)c1OC	x	x	100	1.3	i	0.54	0

3 of the entries above in order of their number in GALR2 agonist, smallest number first:
Molecule	RGS16-Gao	GALR2 agonist	HSV augment primary fold	PKD1 kinase inh
Cc1cc(C)c(N2C(=NC(=O)CCCC(=O)O)SC3CS(=O)(=O)CC32)c(C)c1 (stereo not given)	115	-1.1	1	-2
CCCSc1nc2c(cnn2-c2ccccc2)c(=O)[nH]1	118	-0.7	0.89	-1
COc1cc(-c2nnc3n2N=C(c2ccccc2)CS3)cc(OC)c1OC	100	1.3	0.54	0

(listing goes on)
Molecule	Insulin prom inh	Insulin prom inh cell count	RGS16-Gao	GALR2 agonist	HSV augment	HSV augment primary fold	PKD1 kinase inh
CN(C)CCCn1c(=O)n(Cc2ccco2)c(=O)c2c3c(sc21)CCCCC3	x	x	100	x	i	0.78	x
Clc1ccc2nc(-c3ccncc3)cc(-c3ccccc3)c2c1	0	76	107	-1.7	i	1.1	1
Cc1cccc(Sc2c([N+](=O)[O-])ncn2C)c1	x	x	108	-2.8	i	0.94	8
Cc1nc(N2CCN(Cc3ccccc3)CC2)nc2c1C(=O)CC(C)C2 (stereo not given)	x	x	104	-3.2	i	0.95	-3
O=C(CC(c1ccccc1)c1ccccc1)Nc1nn[nH]n1	x	x	101	x	i	0.95	-1
O=C(COC(=O)c1cccnc1Nc1cccc(C(F)(F)F)c1)NCCN1C(=O)CSC1=O	-26	81	104	-2.0	i	0.69	0
CCN(CC)CCNC(=O)c1ccccc1N	-129	102	105	-2.5	i	0.87	-6
Cc1ccc2nc3c(cc(C#N)c(=O)n3-c3nccs3)c(=O)n2c1	x	x	103	27*	i	0.86	-13
Cc1cc(Cl)c(S(=O)(=O)NC2CCCCC2)cc1OCC(=O)Nc1nncs1	-338	56	102	-0.4	i	0.89	-9
Cc1cc(Br)cc2cn[nH]c12	-20	136	111	x	i	0.87	-5
N#CC1=C(N)Oc2n[nH]c(-c3cccs3)c2C1c1cccnc1 (stereo not given)	x	x	98	-2.0	i	0.97	2
O=C1CSc2ccc(C(=O)O)cc2N1	x	x	101	x	i	0.99	0
COc1cc(O)oc1C=Nc1ccccc1	42	89	99	-1.8	i	0.8	-1
COc1cc(CN2C(=O)C(NC(=O)c3ccco3)(C(F)(F)F)C3=C2CC(C)(C)CC3=O)cc(OC)c1 (stereo not given)	-28	100	98	2.8	i	1	7
Cc1ccc(C[n+]2cccc(-c3ccccc3)c2)c(C)c1	50	169	108	-0.3	i	0.93	4
CN(C)c1ccc(/C=N/N2CCN(c3ccccn3)CC2)cc1	x	x	90	x	i	0.94	x
CCNS(=O)(=O)c1ccc(CCC(=O)NCc2ccccc2)cc1	7	125	99	x	i	1.1	2
CCOc1ccc(C(F)(F)F)cc1NC(=O)COc1ccc(C(F)(F)F)cc1[N+](=O)[O-]	-32	136	97	-2.6	i	1	7
CSCCC(NS(=O)(=O)c1ccc(Cl)cc1)C(=O)OCC(=O)N1CCCc2ccccc21 (stereo not given)	x	x	99	-2.2	i	0.79	-1
COC(=O)C1=C(C)N(Cc2ccc(OC)cc2)C(=O)/C1=C\c1ccco1	x	x	95	x	i	1.1	x
Cc1cc(C(=O)COC(=O)c2ccc(N)c([N+](=O)[O-])c2)c(C)n1Cc1ccc2c(c1)OCO2	x	x	98	x	i	0.89	x
CCCn1c(NC(=O)c2cccc(C)c2C)nc2ccccc21	-44	68	106	-1.5	i	0.65	-5
COc1ccc(C(=O)Cn2nc(CNc3ccc(Br)cc3)[n+]3c2CCCCC3)cc1	x	x	104	x	i	0.91	-3
COc1ccc(CNC(=O)c2cc(-c3cc(C)ccc3O)n[nH]2)cc1	x	x	107	x	i	0.79	x
Cc1sc2c(c1C)c(=O)nc1scc(CC(=O)O)n12	31	55	106	-0.7	i	0.88	-4
COc1cc(C)c(S(=O)(=O)n2nnc3ccccc32)cc1C	33	65	106	-2.0	i	1.1	-1
CN(C)C(CNC(=O)CNC(=O)c1ccc(Br)cc1)c1ccccc1 (stereo not given)	x	x	99	x	i	0.87	3

Profiles, looked up by structure. Order of values: Insulin prom inh | Insulin prom inh cell count | RGS16-Gao | GALR2 agonist | HSV augment | HSV augment primary fold | PKD1 kinase inh
O=C(COC(=O)c1cccnc1Nc1cccc(C(F)(F)F)c1)NCCN1C(=O)CSC1=O in the list: -26 | 81 | 104 | -2.0 | i | 0.69 | 0
CCNC(=O)COc1cccc2ccccc12 in the list: -3 | 113 | 102 | -1.0 | i | 0.72 | 2
CCCCN(CC)C(=O)CN1C(=O)c2ccccc2C1=O in the list: 7 | 136 | 102 | -1.8 | i | 0.85 | -7
COc1ccc(N(CN2C(=O)c3ccccc3C2=O)C(=O)C(C)C)cc1 in the list: x | x | 97 | -0.6 | i | 0.81 | -1

Screens from PubChem.
